Bioassay records as filed in PubChem.
CSC inhib: cancer stem cell viability inhibitors, primary screen, luminescence; cancer stem cell-like cells viability; inhibition, % at 7.5 µM; actives 1.1% (n = 300,000); AID 2717, 2010;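 active = mean at 75% or more and at least half the replicates too; tested in HMLE shEcad cells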;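 also: 0% = median of negative and 100% = median of positive control wells; the first replicate is given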
MT1-MMP act inh: blockers of MT1-MMP proenzyme processing, primary screen, HT1080 RFP-PRO-GFP cells, GFP/RFP fluorescence. GFP/RFP ratio fluorescence, overnight; percent of plate control window, DMSO zero. GFP/RFP ratio change, % at 20 µM. actives 0.061% (n = 360,000);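 active = GFP/RFP ratio change of at least 30% with cell ATP level not reduced by more than half and red fluorescence within 50% of control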; also: strong numbers were not always called active
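Read-out: GFP/RFP fluorescence ratio; Test system: RFP-PRO-GFP reporter HT1080 cells; Compound dosing: single-point 20 µM compound, 1% DMSO; Times: overnight compound exposure at 37 °C.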
HIV Env fusion: inhibitors of HIV-1 Env-driven cell-cell fusion, primary screen, HeLa-JRFL effector, CEM21 target cells, luciferase | inhibition, % at 12.3 µM | actives 1.1% (n = 360,000);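 active = mean replicate inhibition score of at least 50 and every replicate individually at or above 50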;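 also: 0% = plate neutral controls and 100% = maraviroc near 300 nM; one replicate is shown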
Rce1 inh: yeast Rce1p protease inhibitors, primary screen, biochemical, fluorescence, cell-free homogeneous | CAAX prenyl protease 2 (Saccharomyces cerevisiae (strain ATCC 204508 / S288c)), Q03530 | yeast membranes, quenched prenylated peptide cleavage fluorescence | calls only | actives 0.27% (n = 290,000) | AID 2563, 2010;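 active = fall in fluorescence gain of 50% or more versus controls, with final raw signal at or below 3038400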;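 also: plate controls were neutral control wells for no effect and wells lacking membranes for full effect; tested at 10 µM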
UUG fidelity: modulators of yeast start codon fidelity, primary screen, whole organism, S. cerevisiae, single point, plate reader | S. cerevisiae UUG-firefly luciferase reporter, luminescence/redox ratio | activity score, % at 18.7 µM | actives 0.13% (n = 350,000);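 active = replicate mean at a twofold rise or more, about +100% in these data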;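 also: firefly luciferase made from a UUG start codon reports start codon fidelity; reporter light over untreated wells divided by growth signal over untreated wells; some hits fall short of that in this replicate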
PABP FP inh: PABP poly(A) RNA binding inhibitors, primary screen, biochemical, fluorescence polarization, uHTS; AID 2014, 2009; actives 1% (n = 290,000); inhibition, % at 35 µM; Polyadenylate-binding protein 1 (Homo sapiens), P11940;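 active = 50% or more with normal probe brightness, or confirmed in later tests; about a fifth of its hits are not listed in these tables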;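 also: calls also rest on retests at 20 µM and on dose response follow-up; controls were probe without protein and protein plus probe with vehicle; some compounds called inactive have numbers as strong as hits; many hits fall short of the cut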
Target sequence (P11940 whole entry, looked up): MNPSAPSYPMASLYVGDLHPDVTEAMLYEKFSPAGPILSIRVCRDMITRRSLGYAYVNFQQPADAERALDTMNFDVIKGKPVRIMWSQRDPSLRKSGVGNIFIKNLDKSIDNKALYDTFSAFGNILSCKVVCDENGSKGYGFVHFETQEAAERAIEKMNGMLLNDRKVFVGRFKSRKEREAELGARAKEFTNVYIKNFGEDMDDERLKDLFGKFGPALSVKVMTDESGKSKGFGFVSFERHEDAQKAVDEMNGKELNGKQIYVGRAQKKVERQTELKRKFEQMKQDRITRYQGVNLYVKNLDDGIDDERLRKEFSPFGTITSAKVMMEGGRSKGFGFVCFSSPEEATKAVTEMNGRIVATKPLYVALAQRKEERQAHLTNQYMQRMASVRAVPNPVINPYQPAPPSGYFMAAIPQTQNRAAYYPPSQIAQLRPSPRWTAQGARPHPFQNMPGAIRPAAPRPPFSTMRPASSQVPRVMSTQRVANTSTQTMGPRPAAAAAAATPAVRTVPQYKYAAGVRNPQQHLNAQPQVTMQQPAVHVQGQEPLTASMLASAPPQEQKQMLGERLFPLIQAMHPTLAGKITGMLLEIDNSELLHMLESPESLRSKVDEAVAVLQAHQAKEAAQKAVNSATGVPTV
eIF4H FP inh: human eIF4H binding inhibitors, primary screen, translation initiation inhibitor project, biochemical, uHTS, fluorescence polarization; eIF4H fluorescence polarization binding assay; inhibition, % at 35 µM; actives 0.94% (n = 290,000);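 active = 50% or more with normal probe brightness, or confirmed in later tests; about a fifth of its hits are not listed in these tables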;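 also: calls also rest on retests at 20 µM and on dose response follow-up; 0% = protein and probe with vehicle and 100% = probe without protein; strong numbers were not always called active; many hits fall short of the cut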
eIF4H FP inh retest: second read-out of eIF4H FP inh, no call of its own (marks repeat the call); inhibition, %; compound at 20 µM; confirmation average;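 mean of two retest wells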
PABP FP inh retest: recorded beside PABP FP inh, whose call it bears; inhibition, %; compound at 20 µM; confirmation repeats;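 mean of two retest wells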
MT1-MMP act inh RFP: recorded beside MT1-MMP act inh, whose call it bears; RFP signal change, %; measured here: RFP expression control read;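 0 = vehicle wells; hits needed this value within 50% of zero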
* marks the source's active call; other numbers are inactive results; i = inactive; · = no result given. Only part of the results is shown (hit frequency here may not be typical).

Preview, two compounds:
SMILES	CSC inhib	MT1-MMP act inh	MT1-MMP act inh RFP	HIV Env fusion	Rce1 inh	UUG fidelity	PABP FP inh	eIF4H FP inh	others
Oc1c(C(Nc2ccccn2)c2cccnc2)cc(Cl)c2cccnc12 (centres undefined)	-3	-6	1	11	i	·	-1	15
CC(NC(=O)C(=O)N1CCCCC1)C(c1cccs1)N1CCN(c2ccccc2)CC1 (centres undefined)	14	-5	-8	-6	i	-5	2	-21

The whole of this part (from the top)
SMILES	CSC inhib	MT1-MMP act inh	MT1-MMP act inh RFP	HIV Env fusion	Rce1 inh	UUG fidelity	PABP FP inh	eIF4H FP inh	others
Oc1c(C(Nc2ccccn2)c2cccnc2)cc(Cl)c2cccnc12 (centres undefined)	-3	-6	1	11	i	·	-1	15
CC(NC(=O)C(=O)N1CCCCC1)C(c1cccs1)N1CCN(c2ccccc2)CC1 (centres undefined)	14	-5	-8	-6	i	-5	2	-21
O=C(O)c1ccc(Cl)c(S(=O)(=O)N(Cc2ccccc2)c2ccc(F)cc2)c1	96*	-5	1	3	i	-15	7	6
COCCN(C(=O)C1=COCCO1)c1c(N)n(CC(C)C)c(=O)[nH]c1=O	·	0	-1	-112	·	-9	·	·
COc1ccccc1C(=O)Nc1cccc(NC(C)=O)c1	8	-2	0	-129	i	-18	17	-5
COc1cccc(CN(C)C(=O)CSCC(=O)Nc2ccc(C)cc2)c1OC	-2	8	0	-37	i	·	·	·
COCC(C)N=C1NN=C(c2cccs2)C(CC(=O)O)S1 (centres undefined)	-7	-1	0	-2	i	·	1	3
CCC1(C)NC(=O)N(/N=C/c2ccc(C)s2)C1=O (centres undefined)	-21	1	1	-9	i	-3	-2	-5
COc1ccc2oc(C(=O)OCC(=O)Nc3cc(S(=O)(=O)N4CCOCC4)ccc3C)c(C)c2c1	-14	-2	-3	-8	i	·	·	·
CCC1(c2ccccc2)NC(=O)N(CC(=O)N(C)CC(=O)Nc2c(C)cccc2C)C1=O (centres undefined)	-2	0	0	-2	i	-3	9	9
CCCCN(Cc1ccccc1)S(=O)(=O)c1cc(Br)cc2c1N(C(C)=O)C(C)C2 (centres undefined)	·	-13	-15	63*	i	9	0	1
O=C(c1ccccc1)N1CCN(C(=O)c2ccc3c(c2)OCO3)CC1	-7	1	4	-6	i	-13	3	4
O=C(CCNS(=O)(=O)c1ccc(Br)cc1)NCc1ccc(F)cc1	-10	2	3	1	i	11	4	-13
CC(CC(=O)NC1CCCCC1)S(=O)(=O)c1ccc2c(c1)CCN2C(=O)C1CC1 (centres undefined)	-2	-4	-4	-9	i	-25	-7	-8
COc1ccc2nc(C)cc(N/N=C/c3ccc(F)cc3)c2c1	106*	-24	-26	90*	i	-24	-3	18
CCCC(=O)N(Cc1cc(=O)[nH]c2ccccc12)c1ccccc1	11	1	-3	5	i	·	15	8
CC(=O)Nc1cccc(-c2cccc3nccn23)c1	·	5	7	-29	·	0	·	·
Cc1c(CC=C(Cl)Cl)c(=O)[nH]c2c(C)cccc12	-6	-3	-4	2	i	·	6	-2
COc1ccccc1NC(=O)Cn1cnc2c(nnn2-c2ccc(C)cc2)c1=O	-10	-1	0	12	i	·	-11	-8
Cc1ccccc1OCC(O)Cn1c(Br)nc2c1c(=O)[nH]c(=O)n2C (centres undefined)	-7	-1	4	-3	i	·	-14	-2
NS(=O)(=O)c1cc2c(cc1C(F)(F)F)NCNS2(=O)=O	·	1	5	2	i	-10	-13	-12
CCCN(CCC)C(=O)Cc1ccc(F)cc1	·	2	2	-19	i	·	1	16
COc1cnc(SC)nc1Nc1ccc(C#N)cc1	-12	5	4	1	i	2	5	6
Cc1cc2oc(C(=O)NCc3ccc(S(N)(=O)=O)cc3)c(C)c2cc1C	-6	-1	-2	-1	i	-2	-12	15
COc1ccc(OCC(=O)N(Cc2sccc2C)C2CCS(=O)(=O)C2)cc1 (centres undefined)	-6	0	2	4	i	0	-4	-13

Part of the list above in order of count of non-hydrogen atoms, smallest number first:
SMILES	CSC inhib	MT1-MMP act inh	MT1-MMP act inh RFP	HIV Env fusion	Rce1 inh	UUG fidelity	PABP FP inh	eIF4H FP inh	others
CCCN(CCC)C(=O)Cc1ccc(F)cc1	·	2	2	-19	i	·	1	16
Cc1c(CC=C(Cl)Cl)c(=O)[nH]c2c(C)cccc12	-6	-3	-4	2	i	·	6	-2
CC(=O)Nc1cccc(-c2cccc3nccn23)c1	·	5	7	-29	·	0	·	·
NS(=O)(=O)c1cc2c(cc1C(F)(F)F)NCNS2(=O)=O	·	1	5	2	i	-10	-13	-12
COc1ccccc1C(=O)Nc1cccc(NC(C)=O)c1	8	-2	0	-129	i	-18	17	-5
COc1ccc2nc(C)cc(N/N=C/c3ccc(F)cc3)c2c1	106*	-24	-26	90*	i	-24	-3	18
CCCC(=O)N(Cc1cc(=O)[nH]c2ccccc12)c1ccccc1	11	1	-3	5	i	·	15	8
Cc1ccccc1OCC(O)Cn1c(Br)nc2c1c(=O)[nH]c(=O)n2C (centres undefined)	-7	-1	4	-3	i	·	-14	-2
COCCN(C(=O)C1=COCCO1)c1c(N)n(CC(C)C)c(=O)[nH]c1=O	·	0	-1	-112	·	-9	·	·
COc1ccc(OCC(=O)N(Cc2sccc2C)C2CCS(=O)(=O)C2)cc1 (centres undefined)	-6	0	2	4	i	0	-4	-13
COc1cccc(CN(C)C(=O)CSCC(=O)Nc2ccc(C)cc2)c1OC	-2	8	0	-37	i	·	·	·
CC(CC(=O)NC1CCCCC1)S(=O)(=O)c1ccc2c(c1)CCN2C(=O)C1CC1 (centres undefined)	-2	-4	-4	-9	i	-25	-7	-8
CC(NC(=O)C(=O)N1CCCCC1)C(c1cccs1)N1CCN(c2ccccc2)CC1 (centres undefined)	14	-5	-8	-6	i	-5	2	-21
CCC1(c2ccccc2)NC(=O)N(CC(=O)N(C)CC(=O)Nc2c(C)cccc2C)C1=O (centres undefined)	-2	0	0	-2	i	-3	9	9
COc1ccc2oc(C(=O)OCC(=O)Nc3cc(S(=O)(=O)N4CCOCC4)ccc3C)c(C)c2c1	-14	-2	-3	-8	i	·	·	·

(cont.)
SMILES	CSC inhib	MT1-MMP act inh	MT1-MMP act inh RFP	HIV Env fusion	Rce1 inh	UUG fidelity	PABP FP inh	eIF4H FP inh	others
Cc1ccc(C(=O)NCC(=O)OC(C)C(=O)NC2CCCCC2C)cc1C (centres undefined)	-15	3	2	2	i	·	·	·
CC(=O)NC(c1ccccc1)c1nc(-c2ccccc2)cs1 (centres undefined)	·	0	-4	-6	·	-21	·	·
CCSc1nc2c(c(=O)[nH]1)C(c1ccncc1)C(C(=O)OC)=C(C)N2 (centres undefined)	-13	1	-5	-52	i	-12	-5	-10
COC(=O)Cn1c(SCc2ccccc2)nc2ccccc21	-2	1	0	·	i	-12	0	5
O=C(CCC(=O)N(CC(=O)NC1CCCCC1)c1ccc(F)cc1)Nc1nccs1	-5	-1	0	27	i	-4	15	-7
CC1=Nn2c(nc(-c3ccccc3)c2-c2ccccc2)N(CC(N)=O)C(=O)C1	-11	1	1	·	i	8	-8	2
CCOC(=O)c1sc(N)c(C#N)c1CSc1nc2ccc(C)cc2[nH]1	-12	2	1	·	i	·	-1	-10
O=C(CCCC(=O)N(c1cccc(F)c1)C(C(=O)NC1CCCC1)c1ccc(O)cc1)Nc1ccccn1 (centres undefined)	·	-1	-3	-3	i	-18	5	5
COc1ccc(S(=O)(=O)N(CC(=O)NCc2ccco2)c2ccccc2OC)cc1	2	-1	0	-17	i	-3	24	71	eIF4H FP inh retest=17;PABP FP inh retest=6
CCC1CN(C(=O)NCc2ccc(C)cc2)c2ccccc2O1 (centres undefined)	-7	-9	-4	9	i	11	6	-7
CCCCCCCC1CC(=O)C=C(C)C1C(=O)OCC (centres undefined)	-5	1	0	13	i	-6	-13	-7
CCCn1c(N)c(C(=O)CSc2nnc(-c3cccnc3)n2-c2ccc(C)cc2C)c(=O)[nH]c1=O	-9	-7	-3	-5	i	·	3	-4
O=C(CN1C(=O)C2C3C=CC(C3)C2C1=O)Nc1nc2ccccc2[nH]1 (centres undefined)	-19	1	2	·	i	17	1	-2
O=C(O)COc1ccc(/C=N/NC(=O)c2cccc3ccccc23)cc1	-6	4	4	3	i	-30	3	-15
CN(CC(=O)Nc1cccc(F)c1)C(=O)c1ccc(N2CCCC2)c([N+](=O)[O-])c1	5	-2	-7	·	i	-9	·	·
O=C(CCCc1c[nH]c2ccccc12)Nc1ccc2ccccc2c1	61	4	-2	-1	i	·	11	4
Cc1ccc(C)c(S(=O)(=O)NCc2ccc3c(c2)OCO3)c1	-9	1	1	5	i	-2	-9	-13
Cc1ccc([N+](=O)[O-])cc1S(=O)(=O)Nc1ccc(-c2ccc(N3CCCC3)nn2)cc1	35	0	-4	-7	i	·	·	·
CCn1c(=O)cc(OCC(=O)N(C)c2ccccc2F)c2ccccc21	·	4	4	11	i	10	-6	-3
COC(=O)c1ccc(Cc2ccc(C(=O)OC)o2)o1	·	-4	5	-7	i	-11	1	-1
Cc1ccc2c(c1)c1ncnc(N3CCc4ccccc4C3)c1n2C	-2	·	·	·	i	·	-5	-11
CC1CCN(S(=O)(=O)N2CCC(C(=O)NCCc3ccccc3)CC2)CC1	8	-3	-2	-7	i	-8	5	4
CN(Cc1nc2ccccc2s1)C(=O)c1ccc(F)cc1	-11	-2	2	-25	i	-1	5	0
CCOc1cccc(N(C(=O)C2COc3ccccc3O2)C(C(=O)NC2CCCCC2)c2ccc(O)cc2)c1 (centres undefined)	-4	-20	-11	·	i	·	-4	-5
O=C(c1ccc2ncsc2c1)N1CCCC(C(F)(F)F)C1 (centres undefined)	1	-1	-1	2	i	-9	·	·
O=C(CCCN=C1NS(=O)(=O)c2ccccc21)OCC(=O)c1ccc(Br)cc1	·	-1	7	-5	i	-6	-3	-5
COc1ccc(C)cc1NC(=O)C(OC(=O)c1ccc([N+](=O)[O-])o1)c1ccccc1 (centres undefined)	2	2	4	10	i	·	-8	1
Cc1ccc(OCCC(=O)OCC(=O)N2CC(=O)Nc3ccccc32)cc1	-6	-6	1	8	·	-6	·	·
